# Source: PubChem BioAssay
# D2 PAM: positive allosteric modulators of human D2 dopamine receptor; DiscoveRx D2 beta-arrestin cells, luminescence, 90 min; 100% = 57 uM dopamine signal; potentiation, % (concentration not given with the values); 360,000 compounds, 0.23% hits; AID 624464; active = potentiation of 50% or more; inconclusive = 30% to 50%; inactive = 30% or less;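 also: tested on top of an EC20 dose of dopamine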
# Target sequence (P14416 whole entry, looked up): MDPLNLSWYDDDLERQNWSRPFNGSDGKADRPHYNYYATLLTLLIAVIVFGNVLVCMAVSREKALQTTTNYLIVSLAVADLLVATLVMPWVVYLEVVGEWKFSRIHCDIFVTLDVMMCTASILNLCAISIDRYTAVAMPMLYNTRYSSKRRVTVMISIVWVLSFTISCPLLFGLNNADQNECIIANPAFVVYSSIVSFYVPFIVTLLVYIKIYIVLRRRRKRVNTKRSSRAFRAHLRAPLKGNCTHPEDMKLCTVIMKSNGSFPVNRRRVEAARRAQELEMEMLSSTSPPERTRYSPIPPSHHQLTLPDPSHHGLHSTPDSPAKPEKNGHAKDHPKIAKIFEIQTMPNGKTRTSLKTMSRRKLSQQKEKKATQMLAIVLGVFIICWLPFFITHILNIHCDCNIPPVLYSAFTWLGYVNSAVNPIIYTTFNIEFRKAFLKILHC
#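 D2 cells co-treated with compound plus 50 nM dopamine (EC20) for 90 min at 37 deg C to detect potentiation. Beta-arrestin recruitment was read as enzyme-fragment luminescence after 1 h at ambient temperature. Full response was set by 57 uM dopamine.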
# Six1-Eya2 blk: inhibitors of human Six1/Eya2 interaction; Q15475+O00167; AlphaScreen GST-Six1/His-Eya2 binding, biochemical; stronger effect = lower value; control for the full effect not named in the record; activity change, % (test concentration not listed); 360,000 compounds, 0.56% hits; in the data active = activity change below about -65%; inconclusive = about -30% to -65%; inactive = above about -30%; also: % is scaled to controls: 0 for no effect and ±100 for the full control effect
#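 Compounds are tested against tagged Six1 and Eya2 proteins bridged by glutathione donor and nickel acceptor beads; after a one-hour incubation at 37 °C without light, AlphaScreen emission is recorded.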
# PINK1 expr mod: modulators of PINK1 expression | PINK1 immunofluorescence, high-content cytometry, 24 h | Potency, µM (top dose mostly 76.6 µM), without a hit: at the highest dose activation (PINK1 increase), usual class: activators | 410,000 compounds, 0.2% hits; active = well fitted activation curve with a large enough effect; inconclusive = small, poorly fitted or top-dose-only effect; inactive = flat fitted curve, though single readings scatter; cell line not stated here;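 also: potency is read from the fitted curve at half-maximal effect; % of control where 0% means no effect; nearly all actives have a fitted effect of over 65% in size; a mitochondrial uncoupler was the plate control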
#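 A stable cell line was treated with compounds at 5 concentrations for 24 hours, with CCCP as control. PINK1 levels and mitochondrial localization were measured by immunofluorescence with mitochondrial, cell and nuclear markers after fixation, read by laser-scanning cytometry.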
# TRPML1 inh: blocks the human TRPML1 channel | 390,000 compounds, 0.02% hits | activity change, negative = inhibition, % (concentration not given with the values) | TRPML1-inducible cells, Ca2+ dye fluorescence, FDSS; stronger effect = lower value; inhibition of EC80 agonist-evoked calcium signal | Q9GZU1 | AID 624415; in the data active means activity change below about -50%; inconclusive means about -30% to -50%; inactive means above about -30%;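 also: stimulus is agonist 54-4 at its EC80 concentration; % is scaled to controls: 0 for no effect and ±100 for the full control effect; the text of the record puts the active cut at -80%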
# Target sequence (Q9GZU1 whole entry, looked up): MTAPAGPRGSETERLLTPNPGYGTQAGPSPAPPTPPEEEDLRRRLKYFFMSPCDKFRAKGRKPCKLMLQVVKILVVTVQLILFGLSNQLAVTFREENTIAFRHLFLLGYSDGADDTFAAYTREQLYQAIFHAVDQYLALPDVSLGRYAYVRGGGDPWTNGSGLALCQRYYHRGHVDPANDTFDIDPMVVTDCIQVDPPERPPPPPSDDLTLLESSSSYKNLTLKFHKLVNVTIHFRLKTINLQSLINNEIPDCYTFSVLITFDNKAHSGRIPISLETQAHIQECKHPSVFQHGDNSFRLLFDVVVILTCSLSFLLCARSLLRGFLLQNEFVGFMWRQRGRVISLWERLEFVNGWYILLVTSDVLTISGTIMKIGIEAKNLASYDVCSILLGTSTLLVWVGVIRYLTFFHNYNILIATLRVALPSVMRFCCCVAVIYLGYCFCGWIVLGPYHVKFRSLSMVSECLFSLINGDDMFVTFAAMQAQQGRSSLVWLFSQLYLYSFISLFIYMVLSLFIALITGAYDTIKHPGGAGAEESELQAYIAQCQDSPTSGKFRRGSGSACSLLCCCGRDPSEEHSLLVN
#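 TRPML1-DL cells, Tet-induced overnight (~16 h, 37 °C) at 1,500 cells/well, were loaded with Ca8 no-wash dye plus quencher for 45-90 min at room temperature. Compounds were pinned during FDSS kinetic reading; agonist 54-4 at EC80 (4 uM final) then added.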
# TRPML1 ag: activates the human TRPML1 channel; TRPML1-expressing cells, Ca2+ dye fluorescence, FDSS; host cell line not named in the record; reference of the full effect not given here; activation, % (test concentration not listed); 410,000 compounds, 0.12% hits; AID 624414; in the data active = activation above about 50%; inconclusive = about 30% to 50%; inactive = below about 30%; also: 0% is about no effect; the text of the record puts the active cut at 80%
#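 Tet-induced TRPML1-DL cells, 1,500 per well, cultured overnight, were loaded with a no-wash Ca2+ dye for 45–90 min. Calcium fluorescence was recorded on the FDSS for 110 s after compound addition, before the EC80 agonist (4 uM 54-4) was added.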
# D2 ag: agonists of human D2 dopamine receptor (beta-arrestin); P14416; DiscoveRx PathHunter D2 beta-arrestin, luminescence, 90 min; 100% = 57 uM dopamine signal; activation, % (concentration not given with the values); 360,000 compounds, 0.084% hits; in the data active = activation above about 40%; inconclusive = about 15% to 40%; inactive = below about 15%; also: the text of the record calls up to 30% inactive
#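 Agonist mode: compounds alone added to overnight-plated D2 PathHunter cells for 90 min at 37 C, with 57 uM final dopamine (EC100) defining full response. Beta-arrestin recruitment detected by chemiluminescent reagent, read after 1 h at ambient temperature.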
# * = called active by the depositor; u = inconclusive; x = no result given; [ ] = another dose, or the depositor's remark.
# A first look:
SMILES,D2 PAM,Six1-Eya2 blk,PINK1 expr mod,TRPML1 inh,TRPML1 ag,D2 ag
COc1cccc(N2C(N)=NC(N)=NC2(C)C)c1,-14,1,0.1%,1,-0.4,-2.6
CCCOc1ccc(F)cc1-c1cc(C(=O)NCc2ccccc2)[nH]n1,-8,1,-0.6%,x,-0.9,1.6
COc1cc(NC(=O)C2CCCN2C(=O)OCc2ccccc2)cc(OC)c1 (configuration not stated),3,8,4.5%,-7,0.3,-0.1
COc1ccc(-c2c3c(=O)n(C)c(=O)n(C)c3cn2N2CCOCC2)cc1,-7,-10,4.6%,3,-1.0,1.2
CCCCN(C(=O)c1cc(-c2ccco2)nc2ccccc12)c1c(N)n(CCCC)c(=O)[nH]c1=O,6,-2,u,-13,0.9,-1.7
Cc1cc(-c2ccccc2)n2nc(C)c(C#N)c2n1,-2,0,-1.7%,-1,5.3,-0.3
Cc1ccc[n+](CC(=O)c2ccc(NC(=O)c3ccccc3)cc2)c1C,-12,3,1.3%,-19,-0.3,-3.0
COc1ccc(NC(=S)/N=C(\N)Nc2nc(C)c3ccccc3n2)cc1,-8,u,0.6%,52,3.4,-2.2
Cc1c(C(=O)O)sc(S(=O)(=O)N2CCN(C(=O)Cc3ccccc3Cl)CC2)c1C(=O)O,-13,-3,3.7%,30,0.4,-2.0
CN(C)c1ccc(-n2cc3c(=O)n(C)c(=O)n(C)c3c2)cc1,7,u,3.8%,6,-0.6,-1.2

# The list itself (from the top)
SMILES,D2 PAM,Six1-Eya2 blk,PINK1 expr mod,TRPML1 inh,TRPML1 ag,D2 ag
COc1cccc(N2C(N)=NC(N)=NC2(C)C)c1,-14,1,0.1%,1,-0.4,-2.6
CCCOc1ccc(F)cc1-c1cc(C(=O)NCc2ccccc2)[nH]n1,-8,1,-0.6%,x,-0.9,1.6
COc1cc(NC(=O)C2CCCN2C(=O)OCc2ccccc2)cc(OC)c1 (configuration not stated),3,8,4.5%,-7,0.3,-0.1
COc1ccc(-c2c3c(=O)n(C)c(=O)n(C)c3cn2N2CCOCC2)cc1,-7,-10,4.6%,3,-1.0,1.2
CCCCN(C(=O)c1cc(-c2ccco2)nc2ccccc12)c1c(N)n(CCCC)c(=O)[nH]c1=O,6,-2,u,-13,0.9,-1.7
Cc1cc(-c2ccccc2)n2nc(C)c(C#N)c2n1,-2,0,-1.7%,-1,5.3,-0.3
Cc1ccc[n+](CC(=O)c2ccc(NC(=O)c3ccccc3)cc2)c1C,-12,3,1.3%,-19,-0.3,-3.0
COc1ccc(NC(=S)/N=C(\N)Nc2nc(C)c3ccccc3n2)cc1,-8,u,0.6%,52,3.4,-2.2
Cc1c(C(=O)O)sc(S(=O)(=O)N2CCN(C(=O)Cc3ccccc3Cl)CC2)c1C(=O)O,-13,-3,3.7%,30,0.4,-2.0
CN(C)c1ccc(-n2cc3c(=O)n(C)c(=O)n(C)c3c2)cc1,7,u,3.8%,6,-0.6,-1.2
CC(=O)Nc1ccc(Br)c(Cl)c1,-6,10,0.5%,1,1.0,-0.9
COc1cc2c(C(=O)N(C)c3cccc(C(F)(F)F)c3)cn(CC(C)C)c(=O)c2cc1OC,x,x,1.6%,0,-0.5,x
Cc1ccccc1NC(=O)C(C)OC(=O)c1ccccc1C(=O)N(C)c1ccccc1 (configuration not stated),-6,-5,-0.1%,4,-0.4,-2.5
CCC(CC)C(=O)c1c[nH]c(C(=O)N2CCN(c3ccccc3F)CC2)c1,1,15,0.9%,-12,0.2,-7.0
COc1cc(NS(=O)(=O)c2ccc(NC(=O)c3ccccc3C(=O)O)cc2)nc(OC)n1,x,x,0.1%,-8,0.4,x
O=C1c2ccccc2C(=O)C12OC2c1ccc(Cl)cc1Cl (configuration not stated),3,12,0.1%,-13,0.2,-5.0
O=[N+]([O-])c1ccccc1N(CC1CO1)S(=O)(=O)c1ccccc1 (configuration not stated),6,-5,1.6%,12,-0.1,0.6
CCOC(=O)N1CCN(C(=O)/C=C/c2ccc([N+](=O)[O-])cc2)CC1,-4,6,0.4%,21,1.0,2.8
Cc1ccc(-c2csc(NS(=O)(=O)c3cccc(F)c3)n2)o1,-13,-25,-1.1%,-1,1.4,-2.8
CC(=O)N1CCN=C1SCc1cccc(C(F)(F)F)c1,0,-1,-2.1%,16,-0.7,-9.3
O=C1CC(c2ccc(F)cc2)Cc2nc(NCC3CCCO3)ncc21 (configuration not stated),2,-2,-0.4%[38.3 µM],10,-0.6,-2.2
COCCNC(=O)C1=C(N)C(C(=O)Nc2ccc(C)c(S(=O)(=O)N3CCCCC3)c2)SC1=Nc1ccc(C)cc1C (configuration not stated),8,-19,u,-9,1.1,-1.0
COc1ccc(CC(=O)Nc2cc(S(=O)(=O)N3CCOCC3)ccc2N2CCCC2)c(OC)c1,1,-1,0.0%,-22,-0.4,-2.5
CN(CC(=O)Nc1ccc(Br)cc1)Cc1ccccc1,-4,2,6.9%,-1,0.0,-4.0
O=C(COc1ccc(/C=N/NC(=O)c2ccccc2O)cc1)Nc1ccccc1,5,-7,10%,6,1.1,3.6
COc1ccc(-c2noc(N3CCC(C(=O)Nc4ccccc4Cl)CC3)n2)cc1,-4,5,10%,14,1.0,-3.4
O=S(=O)(c1ccc(S(=O)(=O)N2CCCN(Cc3ccccc3)C2)cc1)N1CCCCCC1,-6,-2,20%[38.3 µM],-5,0.8,-1.0
Cc1ccc(S(=O)(=O)CCC(=O)NC2CCCCC2)cc1,-2,0,1.9%,4,1.9,2.9
CCn1c(SCc2ccc(C)cc2)nnc1C1CCN(S(=O)(=O)c2ccc(OC)cc2)CC1,19,0,-2.3%,-17,0.6,0.0
CC1CCCCC1N(C)C1CCN(C(=O)CNC(=O)/C=C/c2cccc(Cl)c2)CC1 (configuration not stated),-1,6,1.6%,-9,0.1,-1.4
CC(C)(C)NC(=O)N1CCN(c2ncccc2C(F)(F)F)CC1,-11,-4,0.4%,2,0.5,-2.2
O=C(Nc1nnc(-c2cccnc2)o1)c1cccc(Cl)c1,-21,-27,1.4%,-13,-0.7,-5.9
COc1ccc(CCN(Cc2ccccn2)C(=S)Nc2cccc(SC)c2)cc1OC,-4,5,1.3%,33,0.7,-0.9
COc1ccc(C(=O)Nc2cccc(C(=O)OCc3cc(=O)n4nc(C5CC5)sc4n3)c2)cc1,x,x,7.6%,-19,0.4,x
CC(C)C[C@H](NC(=O)c1[nH]cnc1C(=O)Nc1ccc(CNC(=O)OC(C)(C)C)cc1)C(=O)OCc1ccccc1,13,-11,8.9%,-6,0.1,2.9
C=C(C)C(=O)Nc1cccnc1Oc1ccc(F)cc1,1,7,2.7%,6,-0.1,-1.7
Cc1nn(C)c2c1c(-c1ccccc1)cc(=O)n2Cc1ccccc1F,x,x,3.7%,-3,2.3,x
O=C(NCc1ccccc1)C1CCCN(C(=O)Nc2ccccc2)C1 (configuration not stated),-4,1,1.4%,-4,1.8,-0.9
O=C(Nc1cccnc1Cl)c1ccc(Cl)c([N+](=O)[O-])c1,14,0,0.2%,-11,-0.6,2.4
COc1ccc(CNC(=O)CCn2ccc3cc(S(=O)(=O)N4CCCC4)ccc32)cc1,4,4,-1.0%,15,-1.3,-0.1
Cc1c(CN(C)C(=O)CSc2nc(-c3ccco3)cc(C(F)(F)F)n2)cnn1C,3,2,-4.2%[38.3 µM],-8,0.6,-0.5
COc1ccc(NC2CCCN(C(=O)CSc3ccncc3)C2)cc1 (configuration not stated),0,-2,-2.3%,u,0.2,-1.8
CC(=O)c1cccc(S(=O)(=O)NCC(c2ccco2)N2CCCCC2)c1 (configuration not stated),-6,-1,1.3%,-8,1.4,2.4
O=C(Nc1cccc(S(=O)(=O)N2CCOCC2)c1)C1=NN(c2ccccc2)C(=O)CC1,1,4,-1.1%,10,-0.6,-1.7
Clc1ccc(OCCSc2ncccn2)c(Br)c1,-13,14,2.2%,1,0.3,-1.4
Cc1nc(SCC(=O)N2CC(=O)Nc3ccccc32)c2c(C)c(C)sc2n1,-13,-30,-2.4%[38.3 µM],1,-0.1,-0.1
N#Cc1c(-c2ccco2)cc(-c2cccnc2)nc1N,5,-22,2.5%,-5,3.2,-0.5
CCCc1nc2c(sc3nc4c(cc32)COC(C)(C)C4)c(=O)n1CCN(C)C,-2,3,-0.6%,-10,-0.1,-2.7
CCCCn1c(N)c(N(CC)C(=O)COc2ccc(C#N)cc2)c(=O)[nH]c1=O,-5,8,-0.5%,19,-0.1,1.8
O=C(CCC1N=C2c3ccccc3N=C(SCc3ccc(F)cc3)N2C1=O)NCc1ccco1 (configuration not stated),-5,-5,-1.8%,28,-0.6,-2.3

# Continued:
SMILES,D2 PAM,Six1-Eya2 blk,PINK1 expr mod,TRPML1 inh,TRPML1 ag,D2 ag
O=C(Nc1cccc2ncccc12)c1ccc(-c2ccc(Br)cc2)o1,-4,-10,0.3%[38.3 µM],-18,1.1,1.1
Cc1ccc(NC(=O)C2CCCN2C(=O)OCc2ccccc2)cc1F (configuration not stated),-9,6,1.0%,-8,-1.0,-1.5
Cc1ccsc1C(=O)NNC(=S)NC1CCCCC1,-7,-2,1.3%,15,0.3,-5.8
Cc1cc(C)nc(N2CCN(c3nc(-c4ccccc4)nc4c3oc3ccccc34)CC2)n1,-8,4,1.5%,-11,1.0,-2.1
COc1ccc(NC(=O)CSc2nncn2C)c([N+](=O)[O-])c1,24,0,0.7%[38.3 µM],-13,0.5,1.2
Cc1ccc(S(=O)(=O)N2CCC(NC(=O)OC(C)C)CC2)cc1,-7,5,0.1%,-5,2.3,-5.7
CCCCN1C(=N)N([C@@H](C)CN2CCC[C@H]2CN2C(N)=NC[C@H]2C(C)C)C[C@H]1[C@H](C)CC,-6,0,2.2%,5,-0.7,-2.5
O=C(Nc1cccc(NC(=O)c2ccccc2[N+](=O)[O-])c1)c1ccccc1Cl,-7,-15,2.8%,3,-1.2,4.4
Cc1cc(C)cc(-n2c(=O)c3ccccc3n(CC(=O)NCC3CCCO3)c2=O)c1 (configuration not stated),-2,11,0.4%,14,-0.2,5.6
O=C(NNc1ncc(C(F)(F)F)cc1Cl)c1ccc(Cl)c(Cl)c1,-4,5,0.5%,-3,1.4,6.6
COc1cccc(C2CCCCN2Cc2nc(-c3ccc(C)o3)oc2C)c1 (configuration not stated),-13,1,2.4%,41,-0.5,-3.6
CCOC(=O)C1=C(O)C(=O)N(c2ccc(S(N)(=O)=O)cc2)C1c1ccc(OC)cc1OC (configuration not stated),2,2,-3.7%,2,-1.0,-1.4
CCO/C=C1/C(=O)N(c2ccc(OC)cc2)C(=O)c2ccccc21,-48,5,-1.4%,17,2.8,-2.6
COc1cc(OC)cc(C(=O)NC(C(=O)NCCc2ccccn2)C(C)C)c1 (configuration not stated),-14,7,-0.2%,2,0.1,-5.9
Cc1ccc(NC(=O)c2cc(S(=O)(=O)NC3CCCCC3)ccc2F)cc1Cl,x,x,28%,1,3.6,x
Cc1ccc2c(c1)nnn2C1CCN(C(=O)NCc2ccccc2)CC1,-4,-8,2.3%,-9,-0.7,-0.6
